Source: PubChem BioAssay (several laboratories)
FPR ligand = binds the human formylpeptide receptor FPR; P21462; FPR-expressing cells, fluorescent ligand binding, flow cytometry; inhibition, %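 (tested at 6.7 µM)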; 24,000 tested, 0.74% active; AID 440;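 further: 0% = buffer wells and 100% = receptor blocker peptide wells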
Target sequence (P21462 whole entry, looked up): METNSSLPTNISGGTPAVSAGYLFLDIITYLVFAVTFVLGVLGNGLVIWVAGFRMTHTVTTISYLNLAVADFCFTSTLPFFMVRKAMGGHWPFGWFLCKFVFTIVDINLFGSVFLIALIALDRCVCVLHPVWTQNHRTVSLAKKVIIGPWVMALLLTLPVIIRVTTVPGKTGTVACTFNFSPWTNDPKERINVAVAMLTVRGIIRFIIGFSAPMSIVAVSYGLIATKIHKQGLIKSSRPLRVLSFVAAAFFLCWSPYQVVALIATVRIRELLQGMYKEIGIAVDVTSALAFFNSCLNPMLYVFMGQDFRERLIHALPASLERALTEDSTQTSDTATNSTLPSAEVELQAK
FPRL1 binder = binds the human formylpeptide receptor-like-1 FPRL1; inhibition, %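 (tested at 6.7 µM)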; 24,000 tested, 0.3% active; FPRL1-expressing cells, fluorescent ligand binding inhibition, flow cytometry; P25090;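 further: 0% = buffer alone and 100% = receptor blocker peptide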
Target sequence (P25090 whole entry, looked up): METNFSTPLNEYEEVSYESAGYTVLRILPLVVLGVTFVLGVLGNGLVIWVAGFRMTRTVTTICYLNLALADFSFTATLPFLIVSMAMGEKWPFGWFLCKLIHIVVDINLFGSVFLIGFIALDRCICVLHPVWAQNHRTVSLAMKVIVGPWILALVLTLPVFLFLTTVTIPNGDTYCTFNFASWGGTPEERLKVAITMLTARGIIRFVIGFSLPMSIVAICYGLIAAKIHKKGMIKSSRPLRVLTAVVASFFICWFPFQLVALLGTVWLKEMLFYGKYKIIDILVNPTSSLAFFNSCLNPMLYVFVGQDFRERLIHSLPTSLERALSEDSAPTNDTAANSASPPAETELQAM
VCAM-1 up imaging = boosters of cytokine-driven VCAM-1 levels – imaging, high-content imaging, pooled HUVEC, TNFa stimulus (AID 457) | calls only | 10,000 tested, 0.2% active | Pooled HUVEC, TNFa-induced VCAM-1 immunofluorescence imaging; hits of this screen are not shown here;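 active means a top-ranked rise in VCAM-1 staining upheld on image or statistical review; inactive means the rest, including candidates rejected on review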;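 further: compounds tested at 5 µM in the well; cells exposed to compound for 24 hours before fixing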
VCAM-1 down = suppression of endothelial VCAM-1 upregulation – cell-based, plate reader, pooled HUVEC, TNFa stimulus (AID 454); HUVEC TNFa-induced VCAM-1 surface immunofluorescence, plate reader; numbers were filed only for top-ranked candidate wells; inhibition, % at 5 µM; 10,000 tested, 0.2% active;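 active means compound among top-ranked inhibitors of TNF-induced VCAM-1 adhesion protein staining, with the hit upheld by image or statistical review; inactive means the rest, including hits rejected on review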;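 further: 0% = TNFa with vehicle and 100% = cells without TNFa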
VCAM-1 down imaging = inhibitors of TNFa-induced VCAM-1 surface display, imaging, high-content imaging, pooled HUVEC, TNFa stimulus (AID 456) | inhibition, % at 5 µM, or IC50 in µM where a hit was titrated | HUVEC TNFa-induced VCAM-1 surface expression, immunofluorescence imaging; numbers were filed only for top-ranked candidate wells | 10,000 tested, 0.2% active;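 active means top tenth filtered wells with inhibition above zero that passed visual or statistical confirmation; inactive means the rest, including hits rejected on review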;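 further: 0% = stimulated vehicle wells and 100% = unstimulated cells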
An asterisk follows results filed as active; i = inactive; u = inconclusive; x = not tested or not shown.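 How the source made its calls, unless noted: active means mean above 30%; inconclusive means self-fluorescent; inactive means the rest.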

SMILES	FPR ligand	FPRL1 binder	VCAM-1 up imaging	VCAM-1 down	VCAM-1 down imaging
COC(=O)Nc1ccc(S(=O)(=O)N(CCO)CC(F)(F)C(F)F)cc1	1	-1	x	x	x
CCc1ccccc1Nc1ccc(C(=O)O)cc1N	1	-17	x	x	x
COc1cccc(/C(O)=C2/C(=O)C(=O)N(CCCN(C)C)C2c2cccc(Cl)c2)c1 (stereo unspecified)	9	10	x	x	x
CCOC(=O)C1=C(C)NC(=O)C(C#N)C1c1ccco1 (stereo unspecified)	6	14	i	i	i
CCC(=O)Nc1c(OC(=O)CC)ccc2c(C)cc(=O)oc12	-1	-1	x	x	x
Cc1cccc(-c2nc(CS(=O)CC(=O)N3CCN(C)CC3)c(C)o2)c1 (stereo unspecified)	-4	-3	x	x	x
Cc1ccc(S(=O)(=O)n2nc(C)c(Br)c2C)c(C)c1C	10	4	x	x	x
COc1ccc(OC)c(NC(=O)CSCc2cnn(-c3ccccc3)c2-n2cccc2)c1	-1	-6	x	x	x
O=C1C2CC=C(Cl)CC2C(=O)N1CC1Cc2ccccc2CO1 (stereo unspecified)	0	0	x	x	x
O=C(CCn1cccc1)N1CCc2ccccc21	-5	5	i	i	i
Cc1ccc2[nH]c(=O)c3cc(C(=O)N(C)Cc4ccco4)sc3c2c1	12	-1	x	x	x
Cc1cc(NC(=O)c2noc3c2CCc2ccccc2-3)n(-c2ccccc2)n1	2	13	x	x	x
CCCc1ccc(Oc2cn[nH]c2-c2ccc(O)c(C)c2O)cc1	18	-13	i	i	i
COc1cc(NC(=O)C2C3C=CC(C3)C2C(=O)O)c(OC)cc1Cl (stereo unspecified)	-12	-10	i	i	i
CCn1cc(C(=O)NCC2CCCO2)c(=O)c2cc(S(=O)(=O)N3CCCCCC3)ccc21 (stereo unspecified)	-1	1	x	x	x
COc1cccc(NC(=O)NC2(C(F)(F)F)Oc3ccccc3O2)c1	0	0	i	71	i
O=C(CN1CCN(Cc2ccccc2)CC1)NCC1COc2ccccc2O1 (stereo unspecified)	-16	-2	i	i	i
O=C1c2ccccc2C(=O)N1CCCCN1CCN(CCCCN2C(=O)c3ccccc3C2=O)CC1	-2	2	i	i	i
Cc1nnc2sc(-c3cccc(NC(=O)c4cccnc4)c3)nn12	-1	-2	i	i	i
Cc1cccc2cc(CN(CCCO)C(=O)Nc3ccc(Cl)cc3)c(=O)[nH]c12	10	8	i	i	i
COc1cc(C(=O)Nc2cccc(-c3nncn3C)c2)cc(OC)c1OC	2	-2	i	i	i
CCOC(=O)/C=C1\NC(C)(C)Cc2cc(OC)c(O)cc21	2	1	x	x	x
CC(C)(C)C1=Nn2c(nnc2-c2n[nH]c3c2CCC3)SC1	8	-2	i	i	i
O=C1OCc2cc(NC(=O)C3CCCO3)ccc21 (stereo unspecified)	-6	4	i	i	i
O=C(Nc1ccccc1)N(O)c1ccc(Cl)cc1	0	2	i	i	i
CC1CC(=O)N(CC(=O)Nc2ccc3c(c2)OCO3)c2ccccc2S1 (stereo unspecified)	4	9	x	x	x
O=C(Nc1c(C(=O)N2CCCCC2)cnn1-c1ccccc1)c1ccccc1	2	1	x	x	x
COC(=O)CN1C(=O)C(O)(CC(=O)c2ccc(Cl)cc2)c2ccccc21 (stereo unspecified)	6	0	i	i	i
O=C(O)c1ccc(NC(=O)C2C3CCC(C3)C2C(=O)O)cc1 (stereo unspecified)	-8	-2	x	x	x
CCCCCNC(=O)CCn1c(=O)oc2ccccc21	0	0	x	x	x
CCCS(=O)(=O)N1CCC(C(=O)NCc2ccco2)CC1	-2	5	x	x	x
Cc1ccccc1Cc1c(C)nc2c(C(=O)N3CCN(Cc4ccc5c(c4)OCO5)CC3)cnn2c1C	6	2	i	i	i
O=C(Cn1cnc2c(oc3ccccc32)c1=O)NCc1ccco1	-3	-1	x	x	x
NC(N)=NS(=O)(=O)c1ccc(N)cc1	1	-5	i	i	i
Cc1[nH]nc2c1C(c1ccccc1F)NC2=O (stereo unspecified)	-2	-3	x	x	x
COCc1nnc(NC(=O)c2ccc(S(=O)(=O)N(C)C3CCCCC3)cc2)o1	1	-1	x	x	x
CCCCOc1ccc(-c2nnn(C(C)(C)C(=O)OC)n2)cc1	-13	4	i	i	i
C=CCNC(=O)C1CC(=O)N(c2ccc(C)cc2)C1 (stereo unspecified)	0	2	x	x	x
CCOc1ccccc1C1N(c2ccc(F)cc2)C(=O)C2CCCN21 (stereo unspecified)	8	0	i	i	i
CCCc1nc2ccccc2c(=O)n1NC(=O)c1c(O)c2cccc3c2n(c1=O)CCC3	1	-6	i	i	i
O=C(Cc1cccs1)Nc1ccccc1C(=O)O	3	0	i	i	i
COc1cc2c(cc1OC)C(C(=O)N1CCCCC1)C(c1ccccc1F)N(C)C2=O (stereo unspecified)	-5	-7	x	x	x
CCC(C)NC(=O)c1ccccc1NC(=O)C(C)N(c1ccccc1)S(C)(=O)=O (stereo unspecified)	4	1	i	i	i
Cc1ccc(Cn2nc(C)c(NC(=O)c3noc4c3CCCCC4)c2C)cc1	-1	-4	x	x	x
CC(NC(=O)c1cc(-c2cccs2)on1)c1ccccc1 (stereo unspecified)	1	1	x	x	x
CCOC(=O)c1cnc(-n2nc(C)cc2C)nc1NC(C)c1ccccc1 (stereo unspecified)	-7	-4	i	73	i
Cc1ccc(CNC(=O)CCc2c(C)nc3ncnn3c2C)cc1	0	2	x	x	x
O=C(CN1C(=O)CSc2ncccc21)N1CCOCC1	-5	-3	x	x	x
COCCn1c(=NC(=O)CSCC(=O)NC2CCCCC2)sc2cc(OC)ccc21	4	7	x	x	x
Cc1cc(C)n(C2=NS(=O)(=O)c3ccccc32)n1	1	2	i	i	i

(list continues)
SMILES	FPR ligand	FPRL1 binder	VCAM-1 up imaging	VCAM-1 down	VCAM-1 down imaging
CC1CCN(C(=O)CN2C(=O)C(=O)c3ccccc32)CC1	4	-5	x	x	x
O=C(CSc1nnc(-c2ccncc2)o1)Oc1ccccc1	0	-3	i	i	i
CC(C)(C)c1ccc(C(=O)CCCSC2=C(C#N)C(c3ccco3)C3=C(CCCC3=O)N2)cc1 (stereo unspecified)	6	-1	x	x	x
C=CCN(c1ccccc1)S(=O)(=O)c1ccc2c(c1)oc(=O)n2C	-9	-14	x	x	x
COCCCNC(=O)c1ccc2nc3ccccc3c(=O)n2c1	8	-3	x	x	x
CN(Cc1ccccc1)C(=O)CCNC(=O)Cn1cnc2ccccc2c1=O	-7	-5	x	x	x
COc1cc(/C=C/C(=O)CC(=O)/C=C/c2ccc(O)c(OC)c2)ccc1O	u	-44	i	86*	i
Cc1noc(/C=C/N(C)C)c1S(=O)(=O)N1CCC(C(=O)O)CC1	-6	-2	x	x	x
O=C(O)CC1NC(=O)N(c2ccccc2)C1=O (stereo unspecified)	4	7	i	i	i
CCCOc1cccc(C2C(C(=O)c3ccc(C)o3)=C(O)C(=O)N2CCCN(C)C)c1 (stereo unspecified)	-6	4	x	x	x

Next section; it opens with the 3 that closed the last part.
SMILES	FPR ligand	FPRL1 binder	VCAM-1 up imaging	VCAM-1 down	VCAM-1 down imaging
Cc1noc(/C=C/N(C)C)c1S(=O)(=O)N1CCC(C(=O)O)CC1	-6	-2	x	x	x
O=C(O)CC1NC(=O)N(c2ccccc2)C1=O (stereo unspecified)	4	7	i	i	i
CCCOc1cccc(C2C(C(=O)c3ccc(C)o3)=C(O)C(=O)N2CCCN(C)C)c1 (stereo unspecified)	-6	4	x	x	x
Cn1c(=O)oc2cc(S(=O)(=O)N3CCCC(C(=O)Nc4ccc5c(c4)OCCO5)C3)ccc21 (stereo unspecified)	8	10	x	x	x
CC1CC(C)CN(C(=O)c2cn(C)c3ccc(S(=O)(=O)N(C)C)cc3c2=O)C1 (stereo unspecified)	0	1	x	x	x
Cn1c(C(=O)N2CCN(c3ccccc3F)CC2)cc2c(=O)n(C)c3ccccc3c21	-2	-7	x	x	x
COC(=O)c1ccc(C2/C(=C(/O)c3ccc(OC(C)C)cc3)C(=O)C(=O)N2c2cc(C)on2)cc1 (stereo unspecified)	1	1	x	x	x
COc1ccc(C2/C(=C(/O)c3ccc4c(c3)CC(C)O4)C(=O)C(=O)N2CCN2CCOCC2)cc1 (stereo unspecified)	2	0	x	x	x
COc1ccc2cc(C(=O)NCc3ccco3)c(=Nc3ccc(C(=O)O)cc3)oc2c1	7	-6	i	i	i
O=C(c1ccc(CS(=O)(=O)c2ccccc2)o1)N1CCN(c2ncccn2)CC1	0	-6	x	x	x
COc1ccc(NC(=O)Nc2cc(C)ccc2OC)cc1	3	10	i	i	i
COC(=O)c1ccc(NC(=O)CCc2c(C)nc3ncnn3c2C)cc1	-1	5	x	x	x
N#CC1=C2SCN(c3ccccc3)CN2C(=O)CC1c1ccccc1Cl (stereo unspecified)	10	-2	x	x	x

Next section; the last 5 above are carried over.
SMILES	FPR ligand	FPRL1 binder	VCAM-1 up imaging	VCAM-1 down	VCAM-1 down imaging
COc1ccc2cc(C(=O)NCc3ccco3)c(=Nc3ccc(C(=O)O)cc3)oc2c1	7	-6	i	i	i
O=C(c1ccc(CS(=O)(=O)c2ccccc2)o1)N1CCN(c2ncccn2)CC1	0	-6	x	x	x
COc1ccc(NC(=O)Nc2cc(C)ccc2OC)cc1	3	10	i	i	i
COC(=O)c1ccc(NC(=O)CCc2c(C)nc3ncnn3c2C)cc1	-1	5	x	x	x
N#CC1=C2SCN(c3ccccc3)CN2C(=O)CC1c1ccccc1Cl (stereo unspecified)	10	-2	x	x	x
CS(=O)(=O)c1nc(-c2ccco2)cc(C(F)(F)F)n1	-14	-4	x	x	x
Cc1ccccc1Cc1c(C)nc2ncnn2c1C	3	-3	x	x	x
CCOCCCNC(=O)C(c1ccc(Cl)cc1)N1CCC2(CC1)OCCO2 (stereo unspecified)	6	6	x	x	x
COc1ccc(NC(=O)C2CCCN2C(=O)OCc2ccccc2)c(OC)c1 (stereo unspecified)	0	0	x	x	x
CC1CCN(CC(O)COc2cccc(F)c2)CC1 (stereo unspecified)	-1	0	x	x	x
CCn1c(=O)cc(OCC(=O)N2CCN(c3cccc(C(F)(F)F)c3)CC2)c2ccccc21	3	5	x	x	x
CCCCN(CC)Cc1ccc(CNC(=O)Nc2ccc(OC)cc2OC)o1	-3	-3	x	x	x
CCCc1ccc(S(=O)(=O)NCCc2ccncc2)cc1	-10	-8	i	i	i
CCOC(=O)N1CCN(CC(O)COc2ccccc2C(C)CC)CC1 (stereo unspecified)	-1	-2	i	i	i
N#CC1=C2SCC(O)(c3ccccc3)N2C(=O)CC1c1cccs1 (stereo unspecified)	12	15	x	x	x
Cc1ccc(/C(O)=C2/C(=O)C(=O)N(CCN3CCOCC3)C2c2cccs2)cc1 (stereo unspecified)	-5	-6	x	x	x
COc1cccc(CNC(=O)C2CCCN(c3nn4c(=O)cc(C)nc4s3)C2)c1 (stereo unspecified)	-2	0	x	x	x
CCOc1cc(C2CC(=O)NC3=C2C(=O)C(C(=O)OC)C(C)C3)cc(Br)c1O (stereo unspecified)	4	1	x	x	x
CCc1cc2c(=O)c(-c3nc4ccccc4n3C)c(C)oc2c(CN2CCN(C)CC2)c1O	-10	-5	x	x	x
C=CCSc1nnc(-c2cccnc2)o1	-6	-2	i	i	i
O=C1CC(c2cccs2)CC2=C1C(c1ccccc1)n1ncnc1N2 (stereo unspecified)	14	4	i	i	i
COc1ccc(-c2cc(C(=O)NCc3ccc(Cl)cc3)no2)cc1OC	2	6	i	i	i
COc1ccccc1NC(=O)CN1CCN(CC(=O)Nc2ccc3c(c2)OCO3)CC1	1	-10	x	x	x
O=C(CCn1c(=O)oc2ccccc21)NCc1ccco1	0	0	i	i	i
CN(CC(=O)NC1CCCCC1)S(=O)(=O)c1cccc2cccnc12	0	-2	x	x	x
CC(=O)c1c(Nc2ccc3c(c2)OCCO3)oc(C)cc1=O	1	-2	x	x	x
CN1C(=O)c2ccccc2Sc2ccc(NC(=O)NC3CC3)cc21	0	0	x	x	x

Among those listed so far, these have a CF3 group.
SMILES	FPR ligand	FPRL1 binder	VCAM-1 up imaging	VCAM-1 down	VCAM-1 down imaging
COc1cccc(NC(=O)NC2(C(F)(F)F)Oc3ccccc3O2)c1	0	0	i	71	i
CS(=O)(=O)c1nc(-c2ccco2)cc(C(F)(F)F)n1	-14	-4	x	x	x
CCn1c(=O)cc(OCC(=O)N2CCN(c3cccc(C(F)(F)F)c3)CC2)c2ccccc21	3	5	x	x	x

Not all compounds are listed; the hit share may differ from the screen's.
